Screening data from PubChem BioAssay.
UUG fidelity: modulators of start codon recognition fidelity in yeast | S. cerevisiae UUG-firefly luciferase reporter, luminescence/redox ratio | activity score, % at 18.7 µM | 0.13% of 350,000 active | AID 602363;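 active = replicate mean at a twofold rise or more, about +100% in these data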;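 also: firefly luciferase made from a UUG start codon reports start codon fidelity; reporter light over untreated wells divided by growth signal over untreated wells; some hits fall short of that in this replicate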
PABP polyA inh: blocks human PABP binding to poly(A) RNA | P11940 | fluorescence polarization | inhibition, % at 35 µM | 1% of 290,000 active | AID 2014;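 active = 50% or more with normal probe brightness, or confirmed in later tests; inconclusive = above 50% with abnormal brightness, or retests that disagree; inactive = below 50% or failed in later tests; about a fifth of its hits are not listed in these tables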;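 also: calls also rest on retests at 20 µM and on dose response follow-up; controls were probe without protein and protein plus probe with vehicle; some compounds called inactive have numbers as strong as hits; many hits fall short of the cut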
Rce1 inhib: inhibitors of yeast Ras-converting enzyme; Q03530; yeast membranes, quenched prenylated peptide cleavage fluorescence; calls only; 0.27% of 290,000 active;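 active = fall in fluorescence gain of 50% or more versus controls, with final raw signal at or below 3038400; inconclusive = same 50% fall but final raw signal above 3038400; inactive = fall in fluorescence gain under 50%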;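 also: plate controls were neutral control wells for no effect and wells lacking membranes for full effect; tested at 10 µM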
Target sequence (Q03530 whole entry, looked up): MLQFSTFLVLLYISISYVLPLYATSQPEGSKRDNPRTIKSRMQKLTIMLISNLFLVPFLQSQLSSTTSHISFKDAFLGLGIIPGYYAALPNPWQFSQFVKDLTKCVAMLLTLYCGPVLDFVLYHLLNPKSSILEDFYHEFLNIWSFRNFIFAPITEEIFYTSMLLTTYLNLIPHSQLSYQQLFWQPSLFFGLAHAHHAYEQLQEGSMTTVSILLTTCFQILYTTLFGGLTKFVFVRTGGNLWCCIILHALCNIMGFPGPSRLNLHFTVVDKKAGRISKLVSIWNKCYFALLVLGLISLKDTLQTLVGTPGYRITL
MT1-MMP act inh: MT1-MMP (human) activation inhibition | HT1080 RFP-PRO-GFP cells, GFP/RFP ratio fluorescence, overnight; percent of plate control window, DMSO zero | GFP/RFP ratio change, % at 20 µM | 0.061% of 360,000 active;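 active = GFP/RFP ratio change of at least 30% with cell ATP level not reduced by more than half and red fluorescence within 50% of control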; also: strong numbers were not always called active
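Assay system: HT1080 cells carrying an RFP-PRO-GFP reporter | Dosing: Single dose of 20 µM compound, 1% DMSO final | Incubation: Cells overnight before dosing, compound overnight, 37 °C, 5% CO2 | Evaluation: GFP/RFP fluorescence ratio | Control set: DMSO and RFP-L50D-GFP cell wells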
HIV Env fusion: HIV envelope-mediated fusion inhibition; HeLa-JRFL Env/CEM21 cell fusion, luciferase; inhibition, % at 12.3 µM; 1.1% of 360,000 active;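 active = mean replicate inhibition score of at least 50 and every replicate individually at or above 50; inconclusive = only one of the two criteria met; inactive = mean below 50 and not all replicates reaching 50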;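 also: 0% = plate neutral controls and 100% = maraviroc near 300 nM; one replicate is shown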
CSC inhib: blocks cancer stem cells; AID 2717; inhibition, % at 7.5 µM; 1.1% of 300,000 active; cancer stem cell-like cells viability, luminescence;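 active = mean at 75% or more and at least half the replicates too; inconclusive = mean and replicates disagree; tested in HMLE shEcad cells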;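 also: 0% = median of negative and 100% = median of positive control wells; the first replicate is given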
eIF4H inh: inhibitors of RNA binding by human eIF4H; eIF4H fluorescence polarization binding assay; inhibition, % at 35 µM; 0.94% of 290,000 active;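 active = 50% or more with normal probe brightness, or confirmed in later tests; inconclusive = above 50% with abnormal brightness, or retests that disagree; inactive = below 50% or failed in later tests; about a fifth of its hits are not listed in these tables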;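 also: calls also rest on retests at 20 µM and on dose response follow-up; 0% = protein and probe with vehicle and 100% = probe without protein; strong numbers were not always called active; many hits fall short of the cut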
eIF4H inh retest: further read-out of eIF4H inh, marked with its call; inhibition, %; compound at 20 µM; confirmation average;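 mean of two retest wells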
PABP polyA inh retest: second read-out of PABP polyA inh, no call of its own (marks repeat the call); inhibition, %; compound at 20 µM; confirmation repeats;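 mean of two retest wells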
MT1-MMP act inh RFP: recorded beside MT1-MMP act inh, whose call it bears; RFP signal change, %; measured here: RFP expression control read;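 0 = vehicle wells; hits needed this value within 50% of zero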
An asterisk follows results filed as active; i = inactive; ? = inconclusive; . = not tested or not shown. This is a subset (hit frequency here may not be typical).

SMILES	UUG fidelity	PABP polyA inh	Rce1 inhib	MT1-MMP act inh	MT1-MMP act inh RFP	HIV Env fusion	CSC inhib	eIF4H inh	others
Cc1ccc(C(=O)NC(=S)Nc2cccc(-c3nc4ccccc4s3)c2)cc1	-13	-6	i	15	5	.	4	10
CCOc1ccc(N2C(=O)C3Sc4[nH]c(=O)sc4C(/C=C/c4ccccc4)C3C2=O)cc1 (stereo unspecified)	-12	13	i	-47	10	3	-5	?
O=C(NCCNC1CCCCC1)c1ccco1	-16	-3	i	1	3	1	6	-2
CCC[n+]1c(C)sc2c(OC)ccc(OC)c21	-13	4	i	1	0	3	0	10
COc1cc(C(=O)N/N=C(\C)c2ccc3c(c2)OCO3)cc(OC)c1OC	.	1	i	3	-6	-325	53	6
O=C(CCCN1C(=O)/C(=C/c2ccccc2Cl)SC1=S)N1CCCC1	-21	11	i	-2	-6	4	14	-5
CC1(C)CC(NC(=O)C2CCCCC2C(=O)O)CC(C)(C)N1 (stereo unspecified)	-18	5	i	6	6	-23	-6	-5
O=C(COC(=O)c1ccc2c(c1)OCO2)Nc1ccccc1OC(F)F	-11	.	.	-1	-3	.	-13	.
C/C(=N\Nc1nc2ccccc2[nH]1)c1ccc([N+](=O)[O-])cc1	-26	-12	i	51*	-2.0*	-14	8	29
Cc1ccc(C)c2nc(SCC(=O)NCc3cccs3)c(C#N)cc12	-16	0	i	3	4	.	-5	-4
COc1ccc(C(CNC(=O)c2ccc(-c3cccc(C(F)(F)F)c3)o2)N2CCOCC2)cc1 (stereo unspecified)	-1	.	i	-1	-8	13	-1	.
OC(CNCC1COc2ccccc2O1)COc1ccc(Cl)cc1 (stereo unspecified)	-3	12	i	-3	4	-15	11	-16
COc1ccc(NC(=O)c2ccc(-c3csc(C)n3)cc2)cc1	-20	6	i	4	-22	9	16	-14
COc1ccc(CN(Cc2nc3ccccc3c(=O)[nH]2)C(=O)C(C)(C)C)cc1	-6	-10	i	-2	-4	-59	1	-14
CC(C)(C)NC(=O)COC(=O)c1nsc(Cl)c1Cl	-7	4	i	5	3	8	-6	-4
Cc1cc(C(=O)Nc2ccccc2Cl)n(-c2ccccc2)n1	0	-11	i	1	2	10	-2	0
Cc1ccc(Nc2nc(N)nc(CN3CCCCCC3)n2)cc1	-25	-7	i	6	4	-58	0	-3
Cc1nc(NCCN)c(C#N)c2c1COC(C)(C)C2	.	-4	i	4	4	.	-5	4
COc1cc(CNCc2ccncc2)cc(Br)c1OCc1ccccc1F	-11	13	i	-7	-20	67*	9	7
Cc1ccc2c(C)c(C(=O)NCCN3CCOC3=O)oc2c1C	-9	4	i	0	1	-2	-16	-3
CCCCN(C)C(=O)CNC(=O)c1nn(-c2ccc(OC)cc2OC)c(=O)c2ccccc12	-6	-2	i	-1	1	-118	-18	-8
O=C(Nc1cccc(S(=O)(=O)N2CCCCCC2)c1)C1CCN(C(=O)c2ccc(F)cc2)CC1	.	.	i	-2	-18	5	2	.
O=C(Cc1ccccc1)Nc1cccc(-c2nnc(-c3ccco3)o2)c1	8	-4	i	15	-22	.	5	-12
O=C(Cn1cnc2c(cnn2-c2ccc(F)cc2)c1=O)NCC1CCCO1 (stereo unspecified)	-24	-9	.	1	-4	.	-3	-1
CC(=O)c1cccc(NC(=O)CN(C)S(=O)(=O)c2cccc3nsnc23)c1	-10	9	i	-2	-4	0	21	13
Cc1ccc(Sc2ncccc2C(=O)NCc2cc([N+](=O)[O-])ccc2O)cc1C	-15	-1	i	0	-4	-22	7	0
CCC(Sc1nc(C)cc(C)n1)C(=O)Nc1ccc(Cl)cn1 (stereo unspecified)	29	8	i	2	1	.	-12	-5
Cc1ccccc1OCc1nc(-c2ccc(-n3cccc3)cc2)no1	7	0	i	1	-3	-18	30	-4
CCOCCCNCc1cccc(OC)c1	-15	0	i	2	2	-8	-13	-7
N/C(=N\OC(=O)Cc1cccs1)c1ccc(Cl)cc1	-9	8	i	-6	-2	-15	-6	-12
COc1cccc(C(=O)CSc2nc3cccnc3n2C)c1	-32	10	i	0	0	24	-8	2
CC(C)C(C(=O)Nc1ccccc1)N1C(=O)c2ccccc2C1=O (stereo unspecified)	-14	30	i	4	4	24	11	-11
Cn1c(CNc2nc3ccccc3n2C)nc2ccccc21	-1	-8	i	-2	-8	-45	-5	-2
Cc1ccc(NC(=O)CSc2nc(N)c3c4c(sc3n2)CSC(C)(C)C4)cc1	.	-7	i	-1	-12	14	44	-8
CCOC(=O)c1ccc(NC(=O)C2CCN(S(=O)(=O)c3c(C)nn(C)c3C)CC2)cc1	-9	-4	i	-3	1	3	-5	-2
Cc1ccc(S(=O)(=O)NC(=O)NCCCN2CCOCC2)cc1	-6	10	i	-2	-2	-2	-7	-5
CC(C)n1c(CCC(=O)O)ccc1-c1ccccc1	-19	7	i	-2	4	-10	-3	-3
O=C1CCCN1CC(O)CS(=O)(=O)Cc1ccccc1 (stereo unspecified)	-10	2	i	-2	3	-2	-2	2
O=S(=O)(NCCc1ccc(F)cc1)c1cccc2cccnc12	.	-11	i	-3	-3	-4	-3	9
COc1cccc(N2C(=O)C3NN=C(C(=O)CN4C(=O)c5ccccc5C4=O)C3C2=O)c1 (stereo unspecified)	-5	3	i	-3	1	-4	-8	8
CC(C)=CCC[C@](C)(O)C1CC[C@]2(C)C1[C@H](O)CC1[C@@]3(C)CC[C@H](O[C@@H]4O[C@H](CO)[C@@H](O)[C@H](O)[C@H]4O[C@@H]4O[C@H](CO)[C@@H](O)[C@H](O)[C@H]4O)C(C)(C)C3CC[C@]12C (stereo partly specified)	8	.	.	-4	-1	2	.	.
O=C(CSc1nc(=O)n2ccccc2n1)Nc1ccc2c(c1)OCO2	.	.	i	0	4	-3	18	.
CCCCOc1cccc(-c2nnc(N)s2)c1	-20	-5	i	2	0	.	6	-11
Cc1cccc(C2CC(c3ccccc3)=NN2c2ccc(S(N)(=O)=O)cc2)c1 (stereo unspecified)	-8	.	.	-6	-4	-21	.	.
O=C(CSc1nncn1-c1ccccc1)Nc1cc(F)ccc1F	-11	2	i	1	-1	-1	.	-9
Cc1cc(C(=O)Cn2nc(C(=O)O)c3ccccc3c2=O)c(C)n1CCc1ccc(F)cc1	52	0	i	3	-4	-6	8	4
CCn1c(=O)c(C(=O)CN2CCN(S(=O)(=O)c3ccccc3)CC2)c(N)n(Cc2ccccc2)c1=O	.	6	i	5	3	-4	1	6
Cc1ccc(C)c(NC(=O)COC(=O)COc2cccc3c2OC(C)(C)C3)c1	-18	.	i	7	3	-3	-5	.
O=C(COC(=O)c1cc([N+](=O)[O-])ccc1N1CCOCC1)NCCc1ccccc1	14	0	i	-1	0	-7	-11	-6
C=CCNC(=O)c1cc(-c2ccc3c(c2)OCO3)on1	-28	-2	i	5	2	-29	31	-2

5 entries picked at random from those above:
SMILES	UUG fidelity	PABP polyA inh	Rce1 inhib	MT1-MMP act inh	MT1-MMP act inh RFP	HIV Env fusion	CSC inhib	eIF4H inh	others
O=C(CCCN1C(=O)/C(=C/c2ccccc2Cl)SC1=S)N1CCCC1	-21	11	i	-2	-6	4	14	-5
Cc1ccccc1OCc1nc(-c2ccc(-n3cccc3)cc2)no1	7	0	i	1	-3	-18	30	-4
N/C(=N\OC(=O)Cc1cccs1)c1ccc(Cl)cc1	-9	8	i	-6	-2	-15	-6	-12
CCC(Sc1nc(C)cc(C)n1)C(=O)Nc1ccc(Cl)cn1 (stereo unspecified)	29	8	i	2	1	.	-12	-5
COc1ccc(C(CNC(=O)c2ccc(-c3cccc(C(F)(F)F)c3)o2)N2CCOCC2)cc1 (stereo unspecified)	-1	.	i	-1	-8	13	-1	.

Following part.
SMILES	UUG fidelity	PABP polyA inh	Rce1 inhib	MT1-MMP act inh	MT1-MMP act inh RFP	HIV Env fusion	CSC inhib	eIF4H inh	others
COc1cc(/C=C/c2ccc3cccc(O)c3n2)cc(OC)c1OC	-8	1	i	22	9	-465	44	10
Cc1cc(Nc2ccccc2Cl)nc(-c2ccccc2O)n1	-1	16	i	-1	0	17	51	0
CC(CCc1ccccc1)NC(=O)Cc1ccc(Br)cc1 (stereo unspecified)	-4	4	i	2	-2	-9	-8	-9
COc1ccc2[nH]cc(C(=O)CN3CCCCC3C)c2c1 (stereo unspecified)	.	-2	i	.	.	.	.	-11
COc1ccc(Cl)cc1/C=N/NC(=O)c1c(-c2ccccc2)noc1C	-17	1	i	-1	-4	6	.	-3
Cc1ccc(OCCCC(=O)Nc2nncs2)cc1	3	-1	i	6	4	15	-8	-2
CCN(C(=O)C(C)Cl)c1ccccc1 (stereo unspecified)	-6	-14	i	0	1	4	25	-4
CCOc1ccc(NC(=O)N2CCN(c3nc4ccccc4s3)CC2)cc1	-22	-6	i	2	-17	.	-1	3
CCN(Cc1ccccc1)c1ccc(/C=N/NS(=O)(=O)c2cccc([N+](=O)[O-])c2)cc1	.	7	i	-1	-2	.	3	2
CCOc1ccc2nc(SCC(=O)c3ccc(O)cc3O)sc2c1	-5	2	i	-7	-6	21	12	8
Cc1cc(NC(=O)c2ccccc2)nc(C)n1	-14	10	i	1	0	-12	-6	-1
CSCCC(NC(=O)OCc1ccccc1)C(=O)NCc1cccnc1 (stereo unspecified)	7	7	i	3	2	3	-9	-5
COC(=O)CSc1nnc(-c2c[nH]c3ccccc23)o1	-8	-3	i	0	0	-11	-4	-6
Oc1ccccc1-c1cc(-c2cccc(F)c2)n[nH]1	-51	4	i	10	4	-330	21	1
COc1ccc(-c2c(C)oc3cc(O)cc(O)c3c2=O)cc1OC	-7	-6	i	-2	-2	-16	-2	-2
CCCN(CCC)C1Sc2ccc(C(=O)OC)cc2NC1=O (stereo unspecified)	-16	27	i	-5	2	.	.	19
Cc1nnc(SC(C)C(=O)NC2CCCCC2C)n1N (stereo unspecified)	.	.	i	3	0	-4	5	.
COC(=O)c1sccc1NC(=O)Nc1cccc(C)c1	.	-8	i	-2	-1	2	-3	-17
Cc1nnsc1C(=O)N1CCCC(C(=O)c2ccc(C(F)(F)F)cc2)C1 (stereo unspecified)	.	-8	i	-1	1	8	-3	1
O=C(C[n+]1ccccc1)N/N=C/c1cc(Br)ccc1O	-1	4	i	0	-2	8	10	3
Cc1cc2cc(CNC(=S)Nc3ccc(OC(F)(F)F)cc3)ccc2n1C	-19	-3	i	50	54	-11	11	77	eIF4H inh retest=3;PABP polyA inh retest=0
O=C(COc1ccc(Cl)cc1)N(Cc1cccs1)C1CCS(=O)(=O)C1 (stereo unspecified)	-6	-5	i	3	-1	-12	.	-13
CC(C)(C)c1ccc(COc2ccsc2C(=O)O)cc1	.	3	.	4	5	0	.	-14
COc1ccc(NS(=O)(=O)c2ccc3c(c2)CCCN3C(C)=O)cc1	-9	5	i	3	-2	-9	2	-11
COc1ccc(OCCSc2nc3ccccc3n2CCC(=O)O)cc1	-2	7	i	2	0	-12	-3	-5
CNc1c(NS(=O)(=O)c2ccc(CC(C)C)cc2)c(=O)oc2ccccc12	-10	0	i	5	5	-1	-3	10
Cc1c(C(C)CCCO)oc(=O)c2c1Oc1c(C)c(C(C)C[C@H](C)O)oc(=O)c1C2 (stereo partly specified)	18	.	.	1	3	-48	-3	.
CCCCCCC1CC(CC(=O)Nc2ccc([N+](=O)[O-])cc2)C(=O)O1 (stereo unspecified)	-18	-6	i	-2	-7	.	2	-5
